# Sfp inh: Sfp phosphopantetheinyl transferase inhibition | 310,000 compounds, 3.5% hits | AID 1490 | Potency, µM, inactives show max response, negative = inhibition, most hits filed as inhibitors | Biochemical Sfp PPTase activity, qHTS | Q9F4F7; active = well fitted inhibition curve with a large enough effect; inconclusive = small, poorly fitted or top-dose-only effect, or another doubt; inactive = no such curve, though single readings can be large or run the other way;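 note: the enzyme is Sfp with the accession as filed and its product quenches rhodamine fluorescence; potency is the fitted concentration of half-maximal effect; 0% = enzyme reaction without inhibitor and -100% = no enzyme wells; top concentration of the series not given in the record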
#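 Reaction rates are the 30-min fluorescence difference (ex 525, em 598 nm) in wells containing 15 nM Sfp, 5 uM rhodamine-CoA and 12.5 uM BHQ-2-YbbR at pH 7.6 with 10 mM MgCl2.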
# TRPML1 blocker: blocks the human TRPML1 channel; activity change, negative = inhibition, % (concentration not given with the values); TRPML1-inducible cells, Ca2+ dye fluorescence, FDSS; active compounds read low; inhibition of EC80 agonist-evoked calcium signal; 390,000 compounds, 0.02% hits; AID 624415; in the data active means activity change below about -50%; inconclusive means about -30% to -50%; inactive means above about -30%;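 note: stimulus is agonist 54-4 at its EC80 concentration; % is set by controls: 0 for no effect and ±100 for the full control effect; the text of the record puts the active cut at -80%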
# Target sequence (Q9GZU1 whole entry, looked up): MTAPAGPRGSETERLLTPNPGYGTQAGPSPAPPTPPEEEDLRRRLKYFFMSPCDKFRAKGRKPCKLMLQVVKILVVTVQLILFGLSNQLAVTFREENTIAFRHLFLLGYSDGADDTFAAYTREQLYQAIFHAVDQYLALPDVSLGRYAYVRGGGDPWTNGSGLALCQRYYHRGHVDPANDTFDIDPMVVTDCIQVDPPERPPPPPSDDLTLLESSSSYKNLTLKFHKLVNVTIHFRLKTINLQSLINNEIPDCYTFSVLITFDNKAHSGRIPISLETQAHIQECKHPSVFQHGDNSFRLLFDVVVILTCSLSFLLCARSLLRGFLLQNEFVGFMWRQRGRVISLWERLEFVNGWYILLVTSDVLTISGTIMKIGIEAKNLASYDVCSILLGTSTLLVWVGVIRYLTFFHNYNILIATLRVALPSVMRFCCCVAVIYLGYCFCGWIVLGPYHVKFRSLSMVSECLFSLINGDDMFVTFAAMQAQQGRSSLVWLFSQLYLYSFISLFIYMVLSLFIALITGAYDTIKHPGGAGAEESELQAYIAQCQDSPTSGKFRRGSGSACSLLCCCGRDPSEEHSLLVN
#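 TRPML1-DL cells, Tet-induced overnight (~16 h, 37 °C) at 1,500 cells/well, were loaded with Ca8 no-wash dye plus quencher for 45-90 min at room temperature. Compounds were pinned during FDSS kinetic reading; agonist 54-4 at EC80 (4 uM final) then added.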
# TRPV1 potentiator: human TRPV1 potentiation. 320,000 compounds, 0.02% hits. potentiation, % at 8.33 µM. TRPV1-expressing cells, Fluo-8 calcium influx, capsaicin EC20 potentiation; host cell line not named in the record; control for the full effect not named in the record. AID 540277. Q8NER1; active means potentiation above 80%; inconclusive means 30% to 80%; inactive means below 30%; note: 0% is about no effect
#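 Fluo-8 calcium influx in TRPV1-expressing cells, kinetic read (ex 480/em 520 nm). Compound added and read 3 min for agonist activity, followed by capsaicin at EC20 final and 2 min further read for enhancement.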
# Menin-MLL FL inh: inhibitors of human menin-MLL interaction, wild-type MLL peptide; FP activity change, % at 61.4 µM; Fluorescence polarization, fluorescein-MLL peptide displacement from menin; AID 1766; 290,000 tested, under 10 active; inconclusive = falling polarisation curve, or a change in total fluorescence; inactive = total fluorescence flat and polarisation flat or rising; no compound was filed as active; the % refers to the polarisation; negative = inhibition;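 note: % of control where 0% means no effect; inhibitors lower the polarisation; unlabelled MLL peptide was the positive control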
# ClpP mod: qHTS Assay for Activators of ClpP | ATP-dependent Clp protease proteolytic subunit (Bacillus subtilis (strain 168)), P80244 | purified B. subtilis ClpP, FRET peptide cleavage, 20 min | Potency, µM (highest dose often 57.5 µM), for inactives: at the highest dose activity change, negative = active | 340,000 compounds, 1.9% hits | AID 651965, 2013; active = well fitted falling curve with a large enough effect; inconclusive = small, poorly fitted or top-dose-only effect; inactive = no such curve, though single readings can be large or run the other way; note: potency is the fitted concentration of half-maximal effect; the source files actives as falling curves though it sought activators and does not explain the sign; nearly all actives have a fitted effect of over 65% in size; many hits overshoot -100%
# Target sequence (P80244 whole entry, looked up): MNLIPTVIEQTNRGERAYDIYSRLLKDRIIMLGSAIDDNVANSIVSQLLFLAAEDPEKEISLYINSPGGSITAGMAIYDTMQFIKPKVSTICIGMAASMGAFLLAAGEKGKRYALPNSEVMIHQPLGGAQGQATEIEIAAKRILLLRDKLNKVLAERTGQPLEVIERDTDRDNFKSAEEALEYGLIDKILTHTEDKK
#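 Buffer: 100 mM Tris/HCl pH8, 100 mM KCl, 0.05% low protease BSA, 2.5% glycerol, 0.01% Tween-20. ClpP 10 microg/mL final; 20 min RT; delta FRET normalized to ADEP and DMSO controls.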
# gsp ag: agonists of gsp mutant (McCune-Albright syndrome); 340,000 compounds, 0.13% hits; gsp mutant cells, cAMP HTRF, 30 min; control for the full effect not named in the record; Potency, µM (series often up to 76.9 µM), for the others: at the highest dose activation (cAMP increase), hits mostly activators; active = well fitted activation curve with a large enough effect; inconclusive = small, poorly fitted or top-dose-only effect, or another doubt; inactive = no such curve, though single readings can be large or run the other way; cell line not stated here;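 note: phosphodiesterase inhibitor Ro 20-1724 added with compounds to block cAMP breakdown; potency is the fitted concentration of half-maximal effect; nearly all actives have a fitted effect of over 60% in size; about a fifth of the inactives were tested at one dose only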
#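 Cells stably selected in G418 were plated at 2000/well, grown 16-24 hr, then given compounds in DMSO with the PDE inhibitor […] (300 uM solution added) for 30 min at 37C; cAMP was read by HTRF.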
# gsp antag: gsp mutant antagonism; 340,000 compounds, 0.4% hits; gsp-mutant cells, cAMP HTRF, 30 min; control for the full effect not named in the record; AID 624288; Potency, µM (top dose mostly 76.9 µM), for inactives: top-dose activity change, negative = inhibition, actives largely listed as inhibitors; active = falling curve of any shape with a large fitted effect; inconclusive = falling curve, mostly with a smaller effect; inactive = flat or rising curve; cell line not stated here;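 note: intracellular cAMP measured with PDE inhibitor Ro 20-1724 present during compound exposure; potency is the fitted concentration of half-maximal effect; % is set by controls: 0 for no effect and ±100 for the full control effect; nearly all actives have a fitted effect of over 65% in size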
#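 HTRF cAMP read-out (cAMP-d2 plus anti-cAMP antibody-K in lysis buffer, 30 min RT). Before lysis, cells are exposed to compounds with […] for 30 min at 37C in DPBS containing Ca/Mg, BSA and Tween 20.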
# An asterisk follows results filed as active; ? = inconclusive; · = not tested or not shown; [ ] = another dose, or the depositor's remark.
SMILES,Sfp inh,TRPML1 blocker,TRPV1 potentiator,Menin-MLL FL inh,ClpP mod,gsp ag,gsp antag
CC(=O)NC1(C(F)(F)F)C(=O)Nc2c1c(=O)[nH]c(=O)n2Cc1ccco1 (stereo not given),-14%,5,15,2.0,-2.6%,-16%,6%
O=C(CSc1nnc(-c2cnccn2)n1Cc1ccco1)c1ccc2ccccc2c1,-14%,-2,2,7.8,-8.9%,?,-11%
O=S(=O)(c1cccnc1)N1CCCC(Nc2ccc(F)c(F)c2)C1 (stereo not given),·,36,·,·,-2.0%,-71%[inhibitor],·
O=C(c1ccc(Cl)cc1)c1ccc(OCC(O)CN2CCOCC2)cc1 (stereo not given),4%,-1,6,1.1,0.9%,-67%[inhibitor],22%
C/C(=N/NC(=O)c1cccc(Br)c1)C1CC2CCC1C2 (stereo not given),7%,0,5,·,0.9%,9%,9%
CCN1C(=O)CSc2ccc(C(=O)NCc3ccccc3)cc21,2%,0,0,·,-0.1%,16%,9%
CN(CC(=O)Nc1cccc(F)c1)C(=O)c1ccc(-c2ccc(Cl)cc2)o1,?,45,-10,·,?,?,-23%
COc1ccc(NC(=O)c2ccccc2-c2ccccc2)c(C)c1,7%,?,2,0.2,0.9%,-21%,-1%
COC(=O)c1cccnc1-n1c(=O)c2cccnc2n(Cc2ccc(Cl)cc2)c1=O,3%,10,-33,2.3,-0.3%,-25%,-10%
O=C(NNC(=O)c1cc(-c2ccccc2Cl)nc2ccccc12)c1csc(N2CCOCC2)n1,·,-10,5,·,-19%,4%,-33%
CC(C)CC(=O)C1CCCN(C(=O)c2ccc3oc(Cc4ccccc4)nc3c2)C1 (stereo not given),2%,-5,-25,0.6,-0.2%,32%,-13%
CC1(CC(=O)Nc2ccccc2)NC(=S)N(c2ccccc2)N1 (stereo not given),?,-14,-9,2.8,0.8%,-3%[15.4 µM],8%
COc1ccc(NC(=O)Cc2ccc(C)c(C)c2)cc1Cl,0%,4,-14,1.0,·,3%[15.4 µM],-14%
COc1ccc(CN(C)C(=O)CCNS(=O)(=O)c2ccccc2)c(OC)c1,·,2,·,·,0.9%,-117%[inhibitor],·
Nc1ccc(C2(c3ccc(N)cc3)c3ccccc3C(=O)c3ccccc32)cc1,·,7,·,·,·,-14%,12%
C/C(Cl)=C\C[N+](C)(C)CC(=O)OCCc1ccccc1,10%,-1,-12,-2.4,-0.4%,-2%,12%
CN1OC[C@@H]2CN(C(=O)C(C)(C)C)[C@H](c3ccc(-c4cc5ccccc5o4)cc3)C[C@@H]21,·,39,·,·,-20%,-47%,·
O=C(Cc1cccs1)Nc1ccc(S(=O)(=O)N2CCCCC2)cc1,-2%,13,0,5.4,-0.3%,-4%,9%
Cc1ccc(CNC(=O)C2CC(c3ccccc3C(F)(F)F)=NO2)cc1 (stereo not given),0%,-1,-26,1.9,1.4%,·,4%
CC1CC(C)(C)NC(=S)N1CC(=O)NCc1ccc(Cl)cc1 (stereo not given),-7%,-8,3,0.3,-1.7%,-1%[15.4 µM],7%
CN(Cc1ccccc1)C(=O)COC(=O)c1cc2ccccc2oc1=O,·,-5,·,·,4.3%,17%,-7%
COc1ccc(C2CC(c3ccc(Cl)cc3Cl)Nc3nc(N)nn32)cc1 (stereo not given),-3%,-1,9,2.8,2.0%,?,-2%
C=CCNc1nc(C(=O)OCC(=O)c2ccc(Cl)cc2)cs1,·,19,-3,·,·,-15%[15.4 µM],5%
CCn1c(CSc2nc3ccccc3s2)nnc1SCC(N)=O,14%,18,8,3.2,-2.7%,12%,8%
COc1ccc(NC(=O)CSc2cn[nH]n2)c(OC)c1,18%,0,2,6.1,·,0%,-9%

# Of the compounds above, these contain an NH in an aromatic ring.
SMILES,Sfp inh,TRPML1 blocker,TRPV1 potentiator,Menin-MLL FL inh,ClpP mod,gsp ag,gsp antag
CC(=O)NC1(C(F)(F)F)C(=O)Nc2c1c(=O)[nH]c(=O)n2Cc1ccco1 (stereo not given),-14%,5,15,2.0,-2.6%,-16%,6%
COc1ccc(NC(=O)CSc2cn[nH]n2)c(OC)c1,18%,0,2,6.1,·,0%,-9%

# (cont.)
SMILES,Sfp inh,TRPML1 blocker,TRPV1 potentiator,Menin-MLL FL inh,ClpP mod,gsp ag,gsp antag
CCN(CC)C(=S)NC(=O)c1cccnc1,50µM*,24,5,-0.1,·,21%,6%
CC(=O)Nc1ccc(OCCOc2ccc([N+](=O)[O-])cc2)cc1,89µM*,8,10,-1.1,-2.3%,7%,-7%
CCCCNS(=O)(=O)c1cc2c3c(c1)CCN3C(=O)CC2,14%,42,-9,3.1,0.1%,-2%,3%
CNc1ccc(Oc2nc([N+](=O)[O-])nn2C)cc1,15%,12,7,-5.1,-0.8%,10%[15.4 µM],10%
CC(C)(C)NS(=O)(=O)c1ccc(NC(=O)c2cc(-c3ccccc3)nc3ccccc23)cc1,14%,-20,15,2.4,-1.9%,5%,10%
COc1ccccc1CNC(=O)CCC1N=C2c3ccccc3N=C(SCC(=O)NCC3CCCO3)N2C1=O (stereo not given),3%,-10,10,-2.9,3.9%,?,5%
Cc1cnc(NC(=O)c2cccc(S(=O)(=O)N3CCOCC3)c2)s1,·,-1,-9,·,1.1%,-52%[inhibitor],3%
Cc1ccc(Cn2c(SCC(C)C)nc3c2c(=O)[nH]c(=O)n3C)cc1,35µM*,-9,8,3.2,-0.3%,6%,18%
Cc1c(C(=O)NCC(c2ccco2)N2CCCC2)sc2ccccc12 (stereo not given),·,22,·,·,·,-1%,3%
CCOC(=O)c1ccc(N2C(=O)C3CCOc4ccccc4C32)cc1 (stereo not given),·,-27,-21,·,-13%,·,2%
CCOc1ccc(Nc2cc(C)nc3ccc(C)cc23)cc1,·,19,·,·,0.3%,-15%[15.4 µM],?
c1ccc(CN2CCN(CCCNc3ccc4nnc(-c5ccccc5)n4n3)CC2)cc1,-5%,22,1,0.8,-5.0%,?,3%
CC(=O)c1ccc(NC(=O)/C=C/c2ccc(C)cc2)cc1,8%,21,2,-1.6,-4.4%,1%,-7%
COc1ccc(CCNC(=O)C(=O)NCc2ccccn2)cc1,18%,-7,3,-1.3,0.5%,-16%,9%
O=C(Nc1cccc(OCC(=O)N2CCOCC2)c1)c1cccc(Cl)c1,2%,16,12,1.0,-1.8%,4%,-8%
CCCc1cc(=O)oc2c3c(cc(OCC(=O)N[C@@H](CSC)C(=O)O)c12)OC(C)(C)CC3,9%,-5,0,-19,0.1%,-21%[15.4 µM],-2%
Clc1ccc(-c2noc(CN3CCCC3)n2)cc1,5%,53,-1,0.6,-7.0%,-8%,-5%
CC(Nc1ncnc2sccc12)c1ccccc1 (stereo not given),-1%,-1,-6,14,-1.9%,-50%[inhibitor],-23%
N#Cc1cccc(NC(=O)N2CCC(c3nc4c(nnn4Cc4cccc(Cl)c4)c(=O)[nH]3)CC2)c1,-6%,13,7,4.6,1.1%,-6%,-5%
O=C1C(=C(O)c2ccccc2)C(=O)c2ccccc21,-15%,-8,1,1.2,-1.7%,-63%[inhibitor],-19%
CCOC(=O)C1(Cc2ccccc2C(F)(F)F)CCN(CCCn2cccn2)CC1,6%,3,-15,-5.0,·,-19%,4%
CC(C)=CCCC(C)N(C=O)C(C)CCC=C(C)C (stereo not given),·,1,·,·,-3.4%,-10%,0%
CN(C)C(=O)CSCc1c(Cl)cccc1Cl,15%,2,-6,2.4,0.8%,8%,7%
Cc1cc(C)c(NC(=O)Nc2ccccc2)c(C)n1,·,-18,21,·,-1.3%,-31%[inhibitor],15%
Cc1ccccc1-c1nnc(SCC(=O)NCc2ccc3c(c2)OCO3)n1C,4%,-5,11,5.5,0.8%,-5%,-1%

# Later entries:
SMILES,Sfp inh,TRPML1 blocker,TRPV1 potentiator,Menin-MLL FL inh,ClpP mod,gsp ag,gsp antag
CCOC(=O)/C=C1\CN(C(C)c2ccccc2)S(=O)(=O)c2ccccc21 (stereo not given),-11%,-5,-19,0.6,-1.7%,?,-5%
C=CCSc1nnc(-c2sc(-c3ccccc3)nc2C)n1C,13%,10,?,2.2,35µM*,4%,-3%
COc1ccc(CNC(=S)Nc2cccc(F)c2)cc1,18%,17,-7,3.9,1.3%,-8%[15.4 µM],-4%
O=S(=O)(Nc1ccc(Cl)c(C(F)(F)F)c1)c1cnc[nH]1,9%,-10,10,1.8,-1.6%,3%,?
Cc1cccc(N=Nc2cn[nH]c2-c2ccco2)c1,-7%,-12,?,-0.1,·,-2%[15.4 µM],8%
CN(CCOc1ccc(Cl)cc1)CC(=O)Nc1ccc(OC(F)(F)F)cc1,10%,18,-4,-7.5,-1.9%,-1%,3%
C=CCn1c(=N)n(CC(=O)c2cccc([N+](=O)[O-])c2)c2ccccc21,-19%,0,9,3.7,?,6%[15.4 µM],-25%
O=C1c2ccccc2-c2c1cccc2C(=O)N1CCN(C(=O)c2ccco2)CC1,?,0,9,1.2,0.5%,1%,-18%
Cc1cc(Cl)c(OCCCn2cncn2)c(Br)c1,13%,-15,-23,-0.5,-1.0%,16%,-7%
CCOC(=O)CN1C(=O)N[C@@H](c2ccco2)C(C(C)=O)=C1C,2%,-21,·,6.8[11.7 µM],0.8%,-22%,14%
O=C(Nc1cccc(C(F)(F)F)c1)c1cc[n+]([O-])cc1,7%,1,14,-4.2,·,24%,-1%
O=C(O)c1cccc([N+](=O)[O-])c1C(=O)Nc1ccc2ccccc2c1,9%,5,5,0.6,4.0%,-26%,6%
O=C(Nc1cccc2ncccc12)c1cccnc1,14%,-14,10,1.4,0.2%,16%,6%
Nc1nc(SCC(=O)N2CCCC2)[nH]c(=O)c1NC(=O)c1cccs1,-4%,11,7,-1.0,-3.6%,-28%,7%
COc1ccc(-n2cnnc2SCC(=O)Nc2cc(C)on2)cc1,-6%,-13,4,-1.1,·,-5%,-4%
O=C(c1ccco1)N1CCN(Cc2c(Cl)cccc2Cl)CC1,10%,10,-11,0.6,0.3%,?,-1%

# Screening data from PubChem BioAssay.
